Screening data from PubChem BioAssay.
Biofilm kill mix: mixture kills Candida albicans biofilm cells | actives 0.02% (n = 120,000) | C. albicans biofilm persisters + clotrimazole, fluorescence viability; primary screen in compound mixtures of four per well | inhibition, % at 7.6 µM;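 active = inhibition above 30.3% in the primary screen of four-compound pools, then above 30% when the compound was retested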;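 also: compounds exposed to preformed 24 h biofilms for 48 h; the number belongs to the whole pool; some results filed as inactive read as strong as hits; inactives centre near 12; 0% = biofilm with clotrimazole alone and 100% = kill control; retested singly at about 60 µM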
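Test system: C. albicans biofilms. Buffer or medium: RPMI/MOPS medium, pH 7.0. Timing: 48 h compound exposure at 37 °C. Technique: Alamar Blue fluorescence. Evaluation: percent inhibition of biofilm viability.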
Active calls of the source: *. Some of the compounds tested; rates above refer to the full screens.

A first look:
SMILES | Biofilm kill mix
CC1CCCCC1NC(=O)COC(=O)/C=C/c1ccc2c(c1)OCO2 (stereo not drawn) | 13
O=C(CSc1nnc(-c2ccncc2)o1)NC1C2CC3CC(C2)CC1C3 (stereo not drawn) | 15
CCCCCCCC(=O)N/N=C(\C)c1cccnc1 | 15
CCN1CCN(c2ncnc3c2cnn3-c2ccc(C)cc2C)CC1 | 3
Cc1ccc(-n2c(-c3cnccn3)n[nH]c2=S)c(Br)c1 | 5

This part in full, repeating the preview:
SMILES | Biofilm kill mix
CC1CCCCC1NC(=O)COC(=O)/C=C/c1ccc2c(c1)OCO2 (stereo not drawn) | 13
O=C(CSc1nnc(-c2ccncc2)o1)NC1C2CC3CC(C2)CC1C3 (stereo not drawn) | 15
CCCCCCCC(=O)N/N=C(\C)c1cccnc1 | 15
CCN1CCN(c2ncnc3c2cnn3-c2ccc(C)cc2C)CC1 | 3
Cc1ccc(-n2c(-c3cnccn3)n[nH]c2=S)c(Br)c1 | 5
CC1(C)CC(CCN(Cc2ccccc2)C(=O)c2ccco2)(c2ccccc2)CCO1 (stereo not drawn) | 4
CS(=O)(=O)c1nncn1-c1ccccc1 | 19
Cn1ncc(Cl)c1C(=O)N1CCN(C(=O)c2ccco2)CC1 | 19
O=C(OCC(=O)c1c[nH]c2ccccc12)c1ccc([N+](=O)[O-])s1 | 2
Cc1ccc(NC(=O)c2cc(-c3cccs3)on2)cc1C | 16
C=CCC(CC=C)(C(N)=O)c1ccccc1 | 13
CCCC(O)(CCC)C(=O)NN(C(=O)CCl)c1ccccc1 | 22
COc1ccc2c(c1)nc(NCCCO)n2Cc1ccccc1 | 15
Cc1oc(-c2ccccc2)cc1C(=O)NCc1ccncc1 | 16
COc1ccc([N+](=O)[O-])cc1NCc1cccc([N+](=O)[O-])c1 | 4
Cc1cccc(-c2noc(-c3ccno3)n2)c1 | 17
CCCCn1c(N)c(C(=S)NC(=O)CC(C)C)c(=O)n(C)c1=O | 18
CSc1ccc(OC2CCCCC2NS(=O)(=O)c2ccc(Cl)cc2)cc1 (stereo not drawn) | 4
Cc1c(/C=N/O)c2ccccn2c1C=O | 8
O=C(NCCN1CCOCC1)c1ccc2c(c1)ncn2C1CCCC1 | 13
Cc1cc(SCC(=O)OCC(=O)NC(C)c2ccccc2)c(C)cc1Br (stereo not drawn) | 5
Cc1ccc(O)c(NC(=O)c2cc([N+](=O)[O-])ccc2Cl)c1 | 7
Cc1cc(C)cc(N2C(=O)c3nccnc3C2=O)c1 | 14
CCOC(=O)c1ccc(NC(=O)CSCCC(=O)O)cc1 | 13
COC(=O)c1sc(N)c(C(=O)OC)c1CSc1nc2sc3c(c2c(=O)n1C)CCC3 | -8

A second format for part of the listing above:
> C=CCC(CC=C)(C(N)=O)c1ccccc1
  Biofilm kill mix: 13
> CCCC(O)(CCC)C(=O)NN(C(=O)CCl)c1ccccc1
  Biofilm kill mix: 22
> COc1ccc2c(c1)nc(NCCCO)n2Cc1ccccc1
  Biofilm kill mix: 15
> Cc1oc(-c2ccccc2)cc1C(=O)NCc1ccncc1
  Biofilm kill mix: 16

Remaining list, next part
SMILES | Biofilm kill mix
COc1cc(C2C(C#N)=C(SC)NC3=C2C(=O)CCC3)ccc1O (stereo not drawn) | 34
c1cncc(CN=C2Nc3ccccc3CS2)c1 | -8
COc1ccc(CCNC(=O)Cc2ccc3c(c2)OCO3)cc1OC | 6
COC(=O)/C(=C1\Oc2ccc(C(C)(C)C)cc2S1)C(F)(F)F | 6
COc1cccc(NC(=O)CSc2nc3ccccc3c3nc4ccccc4n23)c1 | 14
Cc1ccc(NC(=O)C2CC2C)c(Cl)c1 (stereo not drawn) | 6
O=C(CNc1ccc2ccccc2c1)N/N=C/C=C/c1cccc([N+](=O)[O-])c1 | 15
CSCc1cc(N2CCOCC2)nc(-c2ccccc2)n1 | 6
CCN(CC)C(=O)Cn1cc(C(=O)C(=O)NCc2ccco2)c2ccccc21 | 14
O=C(c1ccc(SCc2ccco2)c([N+](=O)[O-])c1)N1CCOCC1 | -4
CCOc1ccc(CN2CCNC(=O)C2CC(=O)NCCCn2ccnc2)cc1 (stereo not drawn) | 16
Cn1c(C(=O)O)cc2c(=O)n3ccccc3nc21 | 13
O=C(Cc1ccccc1)NN1C(=O)C2C3C=CC(C3)[C@@H]2C1=O (stereo partly drawn) | 7
CC1(CCc2ccccc2)NC(=S)N(c2ccccc2)N1 (stereo not drawn) | 4
CCCCc1ccc(NC(=S)Nc2ccc(Cl)c(S(=O)(=O)N(C)C)c2)cc1 | 4
Cc1cccc(S(=O)(=O)N2CCC(CO)(Cc3ccccc3)CC2)c1 | 13
O=C(Nc1nc2ccc([N+](=O)[O-])cc2s1)c1ccco1 | 0
O=C(c1cccc(F)c1)N1CCN(S(=O)(=O)Cc2ccccc2)CC1 | 15
CC(C)CCN(C(=O)Cc1ccccc1F)c1c(N)n(Cc2ccccc2)c(=O)[nH]c1=O | -19
Cc1cccc(-c2nnc(SCC3CNC(=O)O3)n2-c2ccc(Cl)cc2)c1 (stereo not drawn) | 13
COc1ccc(-c2ccc(OC(=O)NC3CCS(=O)(=O)C3)cc2)cc1 (stereo not drawn) | 5
CC(C)(C)C1CCC(OC(=O)CCC(=O)Nc2ccccc2)CC1 (stereo not drawn) | 11
CCC1(C)CC(c2nc(-c3ccc(OC)cc3)cs2)CCS1 (stereo not drawn) | 21
CSc1ccccc1C(=O)C1CCCN(C(=O)NC(C)C)C1 (stereo not drawn) | 14
Cc1ccccc1Oc1nnc(-c2cccs2)c2ccccc12 | 17

Fetched by compound from above:
SMILES | Biofilm kill mix
O=C(c1ccc(SCc2ccco2)c([N+](=O)[O-])c1)N1CCOCC1 | -4
Cc1cccc(-c2nnc(SCC3CNC(=O)O3)n2-c2ccc(Cl)cc2)c1 (stereo not drawn) | 13
CC1(CCc2ccccc2)NC(=S)N(c2ccccc2)N1 (stereo not drawn) | 4

(more compounds)
SMILES | Biofilm kill mix
COc1ccccc1NC(=S)NC1CCCCCCCCCCC1 | 9
Cn1c(=O)cc(OCC(=O)NCCC2=CCCCC2)c2ccccc21 | 17
Cc1ccc(C(=O)NCC(=O)OCC(=O)NCCc2ccccc2)s1 | 20
Cc1cc(=O)[nH]c(SCC(=O)Nc2nnc(SCc3ccccc3)s2)n1 | 26
COc1ccc(OCCCC(=O)NCCc2ccccc2)cc1 | 18
O=C(Nc1cccc(-c2nc3cccnc3s2)c1)c1ccc(Cl)nc1 | 10
Cc1ccsc1/C=C1/CN(C)Cc2c1nc1ccccc1c2C(=O)O | 15
Cc1ccc(-n2nc(C)c3c(C)c(CCC(=O)Nc4ccc(CN5CCCC5)cc4)c(C)nc32)cc1 | 19
O=C(Nc1ccccc1)Nc1ccc2nnsc2c1 | 10
Cc1ccc(-n2cc(CNCCn3nc(C)cc3C)c(-c3ccc(F)cc3)n2)cc1 | 10
CN(c1ccccc1)S(=O)(=O)c1ccc(C(=O)Nc2nnc(C3CC3)s2)cc1 | 23
COC(=O)C1=C(C)NC(C)=C(C(=O)OC)C1c1ccc(C)o1 | 32
COc1ccc(/C=C/c2cc(C(=O)O)c3ccccc3n2)cc1 | 24
Cc1ccc(S(=O)(=O)N2CCN(CC(=O)N/N=C/c3ccc(Br)s3)CC2)cc1 | 13
COCCn1c(SCC(=O)Nc2cccc(S(N)(=O)=O)c2)nc2cc(Cl)ccc2c1=O | 10
COc1cccc(C(C)N(C)Cc2nc(COc3ccccc3)no2)c1 (stereo not drawn) | 27
COc1ccc(CN2C(=O)c3cccc4cccc(c34)C2=O)cc1 | 10
CC(C)(C)S(=O)(=O)/C(C#N)=N/Nc1ccc(S(N)(=O)=O)cc1 | 4
OCCC1CN(Cc2cccc3nonc23)CCN1C1CCCCC1 (stereo not drawn) | 4
Cc1cc(NC(=O)COC(=O)COc2ccc(Cl)cc2C)c([N+](=O)[O-])cc1C | 5
CC(C)(CN1CCN(c2ccccc2)CC1)NS(=O)(=O)c1ccccc1 | 17
Cc1cc(C)cc(N2CN=c3s/c(=C\c4ccco4)c(=O)n3C2)c1 | 9
COc1cc(/C=C(\C#N)C(=O)NC(C)C)ccc1OCc1ccc(C(=O)O)cc1 | 15
O=C(NNC(=O)c1cccnc1)Nc1ccc([N+](=O)[O-])cc1 | 17
Cc1ccccc1CSc1ncnc2ccccc12 | 22
SMILES | Biofilm kill mix
C=CC[N+]1(CC(=O)NCc2ccc(NC(C)=O)cc2)CCOCC1 | 9
Cc1ccc(CNCCNCCO)s1 | 17
O=C(c1c[nH]c(C(=O)N2CCN(Cc3ccccc3)CC2)c1)C1CCCCC1 | 15
O=C(O)c1ccc2nc(-c3ccccc3)sc2c1 | 12
CN1C2=CC=CC=CC2=[N+](C)C12C([N+](=O)[O-])=CC(=[N+]([O-])[O-])C=C2[N+](=O)[O-] (stereo not drawn) | 4
O=C(Cc1ccc(Cl)cc1)Nc1ccc(-c2cc3ccccc3oc2=O)c(Cl)c1 | 8
Cc1ccc(-c2c3c(nc4sc(C(N)=O)c(N)c24)CCCC3)o1 | 12
O=C(NNC(=O)C1CCN(c2ncccn2)CC1)c1ccccc1 | -3
Cc1nn(-c2ccccc2)c(C)c1NC(=O)COc1ccc(C#N)cc1 | 17
Cc1cc(C)nc(NNC(=O)NC2CCCCC2)n1 | 10
Oc1c(N=NC(=S)Nc2ccccc2F)c2ccccc2n1Cc1cccc(Cl)c1 | 19
CC(C)(C)c1ccccc1NC(=O)NC1CCN(Cc2c(F)cccc2Cl)CC1 | 23
CCS(=O)(=O)N1Cc2ccccc2CC1C(=O)Nc1nnc(SCc2c(Cl)cccc2Cl)s1 (stereo not drawn) | 14
Cc1cc(NC(=O)c2sc(Nc3ccc(F)cc3)nc2N)no1 | 5
CCN(Cc1cnn(C)c1)C(=O)c1ccc(OC2CCN(S(=O)(=O)N(C)C)CC2)cc1 | -7
CC(O)CN1CC(O)=C(c2nc3ccccc3s2)C1=N (stereo not drawn) | 0
CN(C)c1ccc(C=NC(CO)C(O)c2ccc([N+](=O)[O-])cc2)cc1 (stereo not drawn) | -1
Cc1ccnc(N=Cc2nc(-c3ccccc3Br)oc2O)c1 | 16
COC(=O)/C=C/c1ccc(OC(=O)c2ccncc2)cc1 | 7
Cc1cccc(-n2c(SCC(=O)O)nc3sc4c(c3c2=O)CCC4)c1 | 30
CCN(CC)S(=O)(=O)c1ccc(NC(=O)C2c3ccccc3Oc3ccccc32)cc1 | 10
COc1ccc(CC(=O)Nc2nnc(C(C)C)s2)cc1OC | 12
Cc1cc(C)cc(C(=O)NC(=S)Nc2ccc3c(c2)OCCO3)c1 | 21
O=C1C(Cc2ccccc2O)NC(=S)N1c1ccccc1 (stereo not drawn) | 13
COc1ccc(C(=O)NNC(=O)c2ccccc2[N+](=O)[O-])cc1 | 6
SMILES | Biofilm kill mix
O=C(c1cccc(C(F)(F)F)c1)C1CCCN(C(=O)CCn2cnnn2)C1 (stereo not drawn) | 24
c1csc(-c2nnc(N3CCOCC3)c3ccccc23)c1 | 9
COc1ccc(-c2[nH]n(-c3ccc([N+](=O)[O-])cc3)c(=O)c2C=NCc2ccc(F)cc2)cc1 | 2
CC(C)CN1CCNC(=O)C1CC(=O)NCCc1cnn(-c2ccccc2)c1 (stereo not drawn) | 14
Cc1ccc(-n2c(C)cc(C(=O)NS(=O)(=O)c3ccc(C)cc3)c2C)cc1 | -8
Cc1cc(=O)[nH]c(NN=C2C3CC4CC(C3)CC2C4)n1 | 23
COc1ccc(CC2(CO)CCN(Cc3cc4ccccc4o3)CC2)cc1 | 7
CCOC(=O)CNC(=O)N1c2ccccc2Sc2ccccc21 | 14
COc1ccc(-c2cc(C3CCN(Cc4cccc(C(F)(F)F)c4)CC3)[nH]n2)cc1 | 8
O=C(NCc1nc(-c2ccc(C(F)(F)F)cc2)no1)Nc1cc(Cl)cc(Cl)c1 | 21
O=C(Nc1ccccc1C(=O)N/N=C/c1ccco1)c1ccc(F)cc1 | 13
Cn1cc(Cl)c(C(=O)Nc2cnn(Cc3ccc(F)cc3)c2)n1 | 16
O=[N+]([O-])c1cc(-c2nnc(Nc3ccc(O)cc3)c3ccccc23)ccc1N1CCOCC1 | 17
Cc1ccc2[nH]c3c(c2c1)CN(C(=O)CN1CCN(C(=O)c2ccco2)CC1)CC3 | 14
CN(C)/C=C/C(=O)c1ccc(Cl)c([N+](=O)[O-])c1 | 12
CC(C)CSc1nnc2[nH]c(=O)cc(N)n12 | 7
Cc1cc(C(=O)COc2ccccc2[N+](=O)[O-])c(C)n1C1CC1 | 3
COc1ccc([N+](=O)[O-])cc1NC(=O)COC(=O)Cc1cc(OC)c(OC)c(OC)c1 | 8
CCOC(=O)/C(=N\Nc1ccccc1[N+](=O)[O-])c1csc(N)n1 | 19
CCNC(=O)COC(=O)/C=C/c1cccs1 | 9
COc1cnc(-c2cccc(C(F)(F)F)c2)nc1OC | 2
NS(=O)(=O)c1ccc(CCNCc2cccs2)cc1 | 12
O=C(c1ccc(CSc2ccc(Cl)cc2)cc1)N1CCCC1 | 15
NNC(=O)c1ccc(COc2cccc3ccccc23)o1 | 17
COc1ccc(CN2CCOCCOCCOCCOCCOCC2)cc1 | 24
SMILES | Biofilm kill mix
CC(C)CCNC(=O)CCc1nnc(Cc2c[nH]c3ccccc23)o1 | 15
CC(C)[C@@H]1C=C(C(=O)O)O[C@H](OCCCCO)C1 | 17
OC(CNC1CCCc2ccccc21)COc1c(Cl)cccc1Cl (stereo not drawn) | 14
CC/C(O)=C1\C(=O)CC(c2ccccc2)CC1=NCCC(=O)O (stereo not drawn) | 30
Cc1ccc(O)c(NC(=O)C2CC(c3ccc(F)cc3)=NO2)c1 (stereo not drawn) | -1
Cc1ccc(NNC(N)=S)cc1Cl | 24
